# Bioassay records (PubChem BioAssay)
# ASM inhibitor: inhibitors of human secretory acid sphingomyelinase. P17405. placental ASM, HMU-PC fluorogenic substrate, 60 min. AID 504937. hit rate 0.006% among 340,000. Potency, µM (series often up to 57.5 µM), inactives show at the highest dose activity change, negative = inhibition, most hits filed as inhibitors; also: potency is read from the fitted curve at half-maximal effect
#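 Human placenta-derived ASM preincubated with compound 10 min at room temperature, then reacted with 9 uM (final) fluorogenic HMU-PC substrate for 60 min at 37 C. Stop solution raises pH to 10; fluorescence read at Ex 386/Em 447 nm.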
# BCR signal inh: chronic active BCR signaling inhibition; hit rate 0.05% among 340,000; Potency, µM (series often up to 46.1 µM), for inactives: at the top dose ratio change, negative = lower green/red ratio, usual class: inhibitors; AID 493014; ABC-DLBCL IkBa-CBG/CBR reporter, luminescence ratio, 4 h; active = well fitted inhibition curve with a large enough effect in the signal ratio, with a control signal flat, not every such curve was filed as active; inconclusive = small, poorly fitted or top-dose-only effect, or effect the other way, or a change in a side signal; the % refers to the signal ratio;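 also: potency is read from the fitted curve at half-maximal effect; plate controls were basal doxycycline-induced cells for no effect and cells given 10 µM MG132 for full effect; MG132 reads +100%, hits lower the ratio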
#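 Cell line TMD8 (human ABC DLBCL), stably expressing tet-inducible CBG68-IkBa fusion and CBR; IMDM/0.5% FBS; cpd up to 46 uM; dox induction, 4 h, 37C/5% CO2; dual luminescence; green/red ratio; MG132 control.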
# hERG WT inh: blocks the wildtype human KCNH2 potassium channel; U2OS, BacMam KCNH2, thallium flux FluxOr; stronger effect = lower value; activity change, % at 1.84 µM; hit rate 0.37% among 340,000; AID 720551;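 active = maximum activity change below -70%; inconclusive = maximum activity change between -70% and -50%; inactive = maximum activity change above -50%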; also: % is scaled to controls: 0 for no effect and ±100 for the full control effect
#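 U2OS cells were transduced with wild-type KCNH2 virus (2.03 x 10^8 / mL) for 4 h at room temperature, then cultured overnight at 37 C. Thallium flux was read with FluxOr dye. Rate constants were normalized to DMSO controls.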
# MBNL1-CUG inh: blocks human MBNL1 binding to CUG repeat RNA. Q9NR56. TR-FRET MBNL1-His/biotin-(CUG)12 binding, 665/545 ratio. Potency, µM (titrated, usually from 57.5 µM), for inactives: at the highest dose activity change, negative = inhibition, most hits filed as inhibitors. hit rate 0.036% among 280,000; active = well fitted inhibition curve with a large enough effect in the signal ratio, with a control signal flat, not every such curve was filed as active; inconclusive = small, poorly fitted or top-dose-only effect, or effect the other way, or a change in a side signal; inactive = no such curve, though single readings can be large or run the other way; the % refers to the signal ratio; also: potency is read from the fitted curve at half-maximal effect; % is scaled to controls: 0 for no effect and ±100 for the full control effect
#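 MBNL1-His + Biotin-(CUG)12, cpd titration 92 nM–58 uM; Tb anti-His Ab 0.055 ng/ul, SA-XL665 5 nM (final); 60 min RT; ratiometric 665/545 nm, Ex 340 nm; normalized to buffer and full-complex controls.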
# Mito fusion yeast: inhibitors of mitochondrial division or activators of mitochondrial fusion; S. cerevisiae fusion-defective mutant growth rescue, CellTiterGlo 48 h; hit rate 0.23% among 320,000; Potency, µM (top dose mostly 46.1 µM), inactives show top-dose growth rescue (activation), actives largely listed as activators;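 also: potency is read from the fitted curve at half-maximal effect; % of control where 0% means no effect; nearly all actives have a fitted effect of over 45% in size; temperature-sensitive fusion mutants such as fzo1-1 at 37 °C on non-fermentable ethanol glycerol medium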
#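 Compounds are tested for their ability to restore growth of mitochondrial fusion-defective yeast strains at non-permissive 37C in YPEG medium over 48 hours. Viability is quantified by luciferase luminescence.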
# PKM2 activator: activators of human pyruvate kinase M2; P14618; purified PKM2, Kinase-Glo ATP luminescence, activation; response scale: 0% is enzyme alone, no compound; Potency, µM (titrated, usually from 57.5 µM), inactives show top-dose activation, hits mostly activators; hit rate 0.34% among 260,000; AID 1631; also: potency is read from the fitted curve at half-maximal effect; % is scaled to controls: 0 for no effect and ±100 for the full control effect; nearly all actives have a fitted effect of over 55% in size
#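 hPK-M2, >95% pure; 0.1 mM ADP / 0.5 mM PEP final; imidazole pH7.2 buffer w/ 7 mM MgCl2, 50 mM KCl; 1 h RT; Kinase-Glo lum. Intermediate enzyme activity for dual inhibitor/activator qHTS.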
# USP2a inh: inhibitors of human ubiquitin-specific protease USP2a | O75604 | hit rate 0.01% among 330,000 | Potency, µM (top dose mostly 38.3 µM), for the others: at the top dose activity change, negative = inhibition, most hits filed as inhibitors | USP2 core, Ub-CHOP2 coupled fluorogenic reporter, 485/531;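 also: potency is read from the fitted curve at half-maximal effect; plate controls were DMSO wells for no effect and full inhibition by NEM control for full effect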
#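 USP2 core (10nM final) preincubated 30min RT with compound in 20mM Tris-HCl pH 8.0, 2mM CaCl2, 2mM beta-mercaptoethanol, 0.05% CHAPS; 25nM Ub-CHOP2 plus 25nM reporter substrate added, fluorescence (Ex485/Em531) read after 60min.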
# Eya2 inh: inhibitors of human Eya2 phosphatase activity; AID 488837; hit rate 0.006% among 330,000; O00167; recombinant Eya2, OMFP fluorescence dephosphorylation (OMFP is methylfluorescein phosphate); Potency, µM (titrated, usually from 76.9 µM), inactives show at the highest dose activity, negative = inhibition, hits mostly inhibitors; also: potency is read from the fitted curve at half-maximal effect; % is scaled to controls: 0 for no effect and ±100 for the full control effect
#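 Eya2 protein (added as 0.2 uM solution) was preincubated with compound for 10 min at ambient temperature in 50 mM HEPES pH 7.5, 50 mM NaCl, 5 uM MgCl2, 0.05% BSA, 1 mM DTT. OMFP (added at 50 uM) then reacted 10 min; fluorescence read at 485/525 nm.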
# TSHR antagonist: human thyrotropin receptor antagonism; P16473; TSHR-expressing cells, TSH-stimulated cAMP HTRF, 2 h; stronger effect = lower value; activity change, negative = inhibition, % at 11.5 µM; hit rate 0.2% among 330,000; AID 504810;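 active = activity change below a set negative limit, meaning inhibition stronger than a set level, cut at about -70% in these data; inconclusive = activity change between two set negative limits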; also: % is scaled to controls: 0 for no effect and ±100 for the full control effect
# Target sequence (P16473 whole entry, looked up): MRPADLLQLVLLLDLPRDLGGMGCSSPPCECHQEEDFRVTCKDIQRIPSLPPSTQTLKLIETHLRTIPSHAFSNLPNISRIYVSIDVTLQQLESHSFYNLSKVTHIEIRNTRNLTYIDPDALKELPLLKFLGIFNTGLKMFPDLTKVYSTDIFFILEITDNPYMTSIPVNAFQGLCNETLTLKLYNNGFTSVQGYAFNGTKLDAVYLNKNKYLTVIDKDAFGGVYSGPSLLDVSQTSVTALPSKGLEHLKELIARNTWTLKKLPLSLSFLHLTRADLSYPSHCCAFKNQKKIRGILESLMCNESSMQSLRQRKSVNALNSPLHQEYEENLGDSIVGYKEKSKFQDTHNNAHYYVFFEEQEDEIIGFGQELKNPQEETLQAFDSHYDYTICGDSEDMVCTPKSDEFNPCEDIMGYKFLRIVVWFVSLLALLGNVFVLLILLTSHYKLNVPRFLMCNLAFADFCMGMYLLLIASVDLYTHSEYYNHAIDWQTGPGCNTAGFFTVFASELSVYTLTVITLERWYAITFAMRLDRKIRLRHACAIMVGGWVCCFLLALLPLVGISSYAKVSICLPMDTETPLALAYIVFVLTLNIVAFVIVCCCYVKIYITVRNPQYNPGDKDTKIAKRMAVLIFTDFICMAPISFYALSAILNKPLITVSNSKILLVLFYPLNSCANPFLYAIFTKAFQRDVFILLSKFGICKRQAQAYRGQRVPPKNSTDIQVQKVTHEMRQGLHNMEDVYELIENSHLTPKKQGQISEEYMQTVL
#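 Read-out is FRET at 665 nm (cryptate excitation 337 nm) from a cryptate-tagged anti-cAMP antibody, competed by cell cAMP against cAMP-d2. Compounds are tested on freshly harvested TSHR cells challenged with 4nM TSH (EC80) for 2 hours at 37 deg C.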
# GALK inh: inhibitors of human galactokinase; P51570; Potency, µM (series often up to 57.5 µM), without a hit: at the highest dose activity change, negative = inhibition, actives largely listed as inhibitors; Purified GALK, Kinase-Glo residual ATP luminescence; AID 1868; hit rate 0.007% among 270,000; also: potency is read from the fitted curve at half-maximal effect; % is scaled to controls: 0 for no effect and ±100 for the full control effect
#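 The enzyme phosphorylates galactose (100 uM) using ATP (35 uM); inhibition is detected as higher residual ATP, quantified by bioluminescence after 1 h reaction at room temperature, pH 8.0.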
# Numbers without * were called inactive; ? = inconclusive; / = not tested or not shown; & = joins results of further samples; [ ] = remark or other dose. Unless noted, calls follow the shape of the dose curve; as a rule, active = well fitted curve in the direction sought with a large enough effect; inconclusive = small, poorly fitted or top-dose-only effect, or another doubt; inactive = no such curve, though single readings can be large; an effect the other way counts as inactive or inconclusive. An excerpt; the hit share may differ from the screen's.
# The line under a structure holds: ASM inhibitor, BCR signal inh, hERG WT inh, MBNL1-CUG inh, Mito fusion yeast, PKM2 activator, USP2a inh, Eya2 inh, TSHR antagonist, GALK inh
O=S(=O)(NC1CCN(Cc2ccccc2)CC1)c1cccc2cccnc12
    0%, 0%, 2, -28%, 0%, 6%, 6%, 17%, -2, -3%
O=C(CCSc1ccccc1)Nc1ccc(OCc2ccccc2)cc1
    0%, 18%, -6, 6%, 1%, 1%, 1%, 14%, -4, -4%
COc1ccc(N2C(=O)c3ccc(C(=O)Nc4ccc(NC(C)=O)cc4)cc3C2=O)cc1
    1%, 0%, -3, 0%, 2%, /, -1%, ?, 5, -4%
CCCCCCCCCC(=O)N1CCN(c2cc3c(cc2F)c(=O)c(C(=O)O)cn3CC)CC1
    -8%, 5%, 16, 5%, -3%, /, 1%, 0%, -6, -1%
COc1ccc(CN(C)CC(=O)Nc2sc3c(c2C#N)CCC3)c(OC)c1
    -3%, 1%, -9, 4%, 6%, 15%, -5%, -11%, -6, -3%
C=CCNC(=O)c1onc(CCl)c1C(=O)OC
    4%, -11%, /, -4%, 0%, -5%, 1%, 11%, 9, 3%
COc1ccc(NS(=O)(=O)c2ccc(O)c(C(=O)OCC(=O)Nc3ccc4c(c3)OCCO4)c2)cc1
    -12%, 5%, 5, ?, 4%, -17%, -27%, 1%, 32, -2%
FC(F)Oc1ccc(NC(=S)N2CCc3ccccc32)cc1
    -8%, -11%, -13, -2%, 3%, -11%, -1%, -27%, 3, 0%
NNC(=O)Cn1nc(-c2ccccc2)c2ccccc2c1=O
    -1%, -3%, 9, -3%, 8%, /, -9%, 11%, 1, /
CC(=O)c1cc(C#N)c(N2CCCC2)nc1C
    -5%, 0%, 6, -10%, -7%, 2%, 1%, -10%, -13, 0%
c1ccc(Cc2nn3c(COc4ccccc4)nnc3s2)cc1
    -2%, -5%, 11, -3%, 9%, 6%, -1%, 5%, -3, 0%
O=C(/C=C/c1ccccc1)NC(NC(=S)Nc1ccc(Cl)cc1Cl)C(Cl)(Cl)Cl (stereo unspecified)
    /, ?, -6, 13%, -2%, 2%, -6%, -5%, -16, -1%
CC1CCCCC1NC(=O)Cn1[nH]c(=O)c2ccccc2c1=O (stereo unspecified)
    -1%, ?, 3, -1%, 2%, -4%, -1%, 5%, -7, -4%
N#Cc1ccc(-c2ccc(F)cc2)nc1Oc1ccc(Cl)c(Cl)c1
    -1%, -5%, 11, -16%, 2%, 3%, 5%, -1%, 3, -3%
Cc1ccccc1Cn1c(-c2ccc(=O)[nH]c2)nc2ccccc21
    -3%, -11%, -2, -25%, -6%, /, 0%, -8%, -10, -3%
COc1ccc(CNCCC(c2ccc(F)cc2)c2ccc(OC)cc2)cc1 (stereo unspecified)
    -6%, -3%, -133*, /, -12%, -5%, 1%, -12%, -3, 0%
Cc1ccc(S(=O)(=O)N(C)C)cc1NC(=S)N1CCc2ccccc21
    0%, -1%, 0, -5%, 7%, 4%, -1%, -11%, -8, 15%
CCn1c(CC(=O)Nc2ccc(C)c(Cl)c2)nnc1SCCOc1ccc(OC)cc1
    2%, -4%, 0, -9%, 2%, -8%, 0%, -10%, 23, 1%
O=C(CN1CCN(c2ccc(Cl)cc2)CC1)Nc1ccc(F)c(F)c1
    -16%, 8%&17%, 11, -5%, 5%&-9%, 14%, -1%, 1%, -20, 0%
COc1cc(/C=C2/NC(=O)N(CC(=O)Nc3cccc(C)c3)C2=O)ccc1OCC(N)=O
    81%[activator], 0%, 1, ?, 1%, -2%, 7%, 7%, 23, -4%
O=C(Nc1cccnc1)c1sc(Nc2ccccc2F)nc1-c1ccccc1
    20%, 7%, 23, 4%, -4%, 2%, 2%, -10%, -10, -3%
CC(=O)Nc1ccc(S(=O)(=O)Nc2nnc(C(C)(C)C)s2)cc1
    1%, 4%, 5, -13%, -1%, 16µM*, -9%, 1%, 10, -1%
CCc1ccc(NC(=O)Cn2nnc(C(=O)NCc3ccc4c(c3)OCO4)c2N)cc1
    -3%, -1%, -6, -1%, -4%, 0%[0.46 µM], 0%, -3%, 8, 6%
CCOC(=O)c1sc(NC(=O)CSc2nc(-c3ccco3)cc(C(F)(F)F)n2)c(C#N)c1C
    1%, 6%, 1, -8%, 1%, 6%, 3%, 5%, -2, -3%
C/C(CC(=O)Nc1ccc(Cl)c(C(F)(F)F)c1)=N\NC(=O)c1ccccc1O
    -21%, ?, -3, /, 7%, -1%, 3%, 2%, -24, 0%
COc1cc2[nH]c3c(Cl)ncnc3c2cc1OC
    6%, -7%, -10, -9%, -6%, 5%, -4%, -6%, 6, 2%
CC(NC(=O)Cc1ccc(F)cc1)c1ccccc1 (stereo unspecified)
    3%, -5%, -6, 4%, -1%, 0%, 1%, 5%, -1, 2%
Cn1c(=O)[nH]c(=O)c2c1nc(N1CCN(C(c3ccccc3)c3ccccc3)CC1)n2CCO
    3%, 7%, -8, -3%, -1%, /, 0%, -4%, -12, /
CC(C)(C)NS(=O)(=O)c1ccc(OCC(=O)Nc2ccc3c(c2)OCCO3)cc1
    -6%, 2%, -9, 6%, -9%, 0%, -1%, 4%, 14, 7%
CC1=C(C(=O)Nc2ccccc2)C(c2cccnc2)n2nc(-c3cccnc3)nc2N1 (stereo unspecified)
    1%, 3%, 14, 3%, 0%, 1%, 1%, -16%, 6, -3%

# Entries of single compounds from above.
# Cn1c(=O)[nH]c(=O)c2c1nc(N1CCN(C(c3ccccc3)c3ccccc3)CC1)n2CCO reads ASM inhibitor: 3%; BCR signal inh: 7%; hERG WT inh: -8; MBNL1-CUG inh: -3%; Mito fusion yeast: -1%; PKM2 activator: /; USP2a inh: 0%; Eya2 inh: -4%; TSHR antagonist: -12; GALK inh: /
# CCOC(=O)c1sc(NC(=O)CSc2nc(-c3ccco3)cc(C(F)(F)F)n2)c(C#N)c1C reads ASM inhibitor: 1%; BCR signal inh: 6%; hERG WT inh: 1; MBNL1-CUG inh: -8%; Mito fusion yeast: 1%; PKM2 activator: 6%; USP2a inh: 3%; Eya2 inh: 5%; TSHR antagonist: -2; GALK inh: -3%

# Next structures.
# The line under a structure holds: ASM inhibitor, BCR signal inh, hERG WT inh, MBNL1-CUG inh, Mito fusion yeast, PKM2 activator, USP2a inh, Eya2 inh, TSHR antagonist, GALK inh
CCOCCCn1c(=S)[nH]c2ncccc2c1=O
    -4%, 3%, 4, -6%, -1%, 0%, 3%, 8%, 0, 0%
Cc1ccc(O)c(NC(=S)NC(=O)/C=C/c2ccccc2)c1
    -2%, 7%, 3, 3%, -3%, 1%, 2%, 12%, -11, 7%
O=C(Nc1ccc(Cl)cc1)OCc1cc(-c2ccccc2Cl)on1
    -17%, 1%, 2, 3%, 1%, 1%, 2%, -4%, -30, /
O=[N+]([O-])c1cc(C(F)(F)F)ccc1N1CCCC(O)C1 (stereo unspecified)
    -9%, 0%, 3, 15%, 3%, -22%, 2%, -5%, -1, 10%
O=c1c2ccccc2[nH]c(=S)n1CCCN1CCN(c2ccccc2F)CC1
    -1%, 5%, -70*, -6%, -17%, /, 0%, 12%, -3, -2%
COc1cc(C(=O)NC(=S)Nc2ccc3oc(=O)ccc3c2)cc(OC)c1OC
    -7%, 1%, -5, -1%, -2%, 0%, 5%, 5%, 14, -1%
CC1CCCCC1NC(=O)CCCCCn1c(=S)[nH]c2ccccc2c1=O (stereo unspecified)
    183%, -6%, 0, 2%, -30%, 0%, 13%, -2%, -12, -2%
Cc1sc(NC(=S)NC(=O)c2ccc(C(C)(C)C)cc2)c(C#N)c1C
    -6%, -5%, 8, -3%, -5%, -3%, 2%, 18%, -15, -2%
O=C(CCCn1c(=O)c2sccc2n(Cc2ccc(F)cc2)c1=O)NCc1ccco1
    1%, 1%, 12, 13%, -7%, 4%, 0%, 6%, -11, 0%
COc1ccc(C2CC(c3ccccc3)=NN2C(=S)Nc2ccccc2)cc1 (stereo unspecified)
    2%, 3%, -24, 102%[activator], -4%, -21%, -1%, -3%, -8, 3%

# Some entries already given, reduced to BCR signal inh and PKM2 activator.
molecule	BCR signal inh	PKM2 activator
O=S(=O)(NC1CCN(Cc2ccccc2)CC1)c1cccc2cccnc12	0%	6%
O=C(CCSc1ccccc1)Nc1ccc(OCc2ccccc2)cc1	18%	1%
